# High-throughput results (PubChem BioAssay)
# VCAM-1 up imaging: enhancers of VCAM-1 display on endothelial cells, imaging, high-content imaging, pooled HUVEC, TNFa stimulus (AID 457); Pooled HUVEC, TNFa-induced VCAM-1 immunofluorescence imaging; hits of this screen are not shown here; calls only; hit rate 0.2% among 10,000;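 active = a top-ranked rise in VCAM-1 staining upheld on image or statistical review; inactive = the rest, including candidates rejected on review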;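 note: compounds tested at 5 µM in the well; cells exposed to compound for 24 hours before fixing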
# VCAM-1 down imaging: suppression of endothelial VCAM-1 upregulation – imaging, high-content imaging, pooled HUVEC, TNFa stimulus (AID 456) | hit rate 0.2% among 10,000 | inhibition, % at 5 µM, or IC50 in µM where a hit was titrated | HUVEC TNFa-induced VCAM-1 surface expression, immunofluorescence imaging; numbers were filed only for top-ranked candidate wells;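 active = top tenth filtered wells with inhibition above zero that passed visual or statistical confirmation; inactive = the rest, including hits rejected on review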;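 note: 0% = stimulated vehicle wells and 100% = unstimulated cells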
# FPR binder: ligands of human FPR, also counter-screen for FPRL1 ligands; FPR-expressing cells, fluorescent ligand binding, flow cytometry; inhibition, %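 (tested at 6.7 µM)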; hit rate 0.74% among 24,000; AID 440;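 note: 0% = buffer wells and 100% = receptor blocker peptide wells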
# Target sequence (P21462 whole entry, looked up): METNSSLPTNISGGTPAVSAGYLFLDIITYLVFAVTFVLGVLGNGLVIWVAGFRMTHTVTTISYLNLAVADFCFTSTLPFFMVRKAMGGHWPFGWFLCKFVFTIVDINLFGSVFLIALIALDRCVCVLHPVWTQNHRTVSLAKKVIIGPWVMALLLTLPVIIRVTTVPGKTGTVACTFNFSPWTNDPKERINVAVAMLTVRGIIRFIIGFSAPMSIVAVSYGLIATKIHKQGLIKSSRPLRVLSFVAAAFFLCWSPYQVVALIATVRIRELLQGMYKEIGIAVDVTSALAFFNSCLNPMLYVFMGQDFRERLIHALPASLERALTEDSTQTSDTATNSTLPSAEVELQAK
# FPRL1 binder: ligands of human FPRL1, also counter-screen for FPR ligands; AID 441; P25090; inhibition, %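 (tested at 6.7 µM)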; hit rate 0.3% among 24,000; FPRL1-expressing cells, fluorescent ligand binding inhibition, flow cytometry;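 note: 0% = buffer alone and 100% = receptor blocker peptide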
# Target sequence (P25090 whole entry, looked up): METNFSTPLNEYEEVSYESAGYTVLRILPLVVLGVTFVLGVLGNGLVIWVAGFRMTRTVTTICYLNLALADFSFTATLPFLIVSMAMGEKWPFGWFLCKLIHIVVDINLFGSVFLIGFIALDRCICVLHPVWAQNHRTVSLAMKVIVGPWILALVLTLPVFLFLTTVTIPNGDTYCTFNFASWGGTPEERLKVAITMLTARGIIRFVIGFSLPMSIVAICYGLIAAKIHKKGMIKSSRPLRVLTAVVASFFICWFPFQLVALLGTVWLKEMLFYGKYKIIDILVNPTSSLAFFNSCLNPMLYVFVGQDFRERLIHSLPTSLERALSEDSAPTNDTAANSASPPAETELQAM
# VCAM-1 inhibition: inhibitors of TNFa-induced VCAM-1 surface display, cell-based, plate reader, pooled HUVEC, TNFa stimulus (AID 454); hit rate 0.2% among 10,000; HUVEC TNFa-induced VCAM-1 surface immunofluorescence, plate reader; numbers were filed only for top-ranked candidate wells; inhibition, % at 5 µM;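 active = compound among top-ranked inhibitors of TNF-induced VCAM-1 adhesion protein staining, with the hit upheld by image or statistical review; inactive = the rest, including hits rejected on review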;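 note: 0% = TNFa with vehicle and 100% = cells without TNFa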
# * marks the source's active call; other numbers are inactive results; i = inactive; / = no result given.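 Rule for the calls, unless noted: active = mean above 30%; inconclusive = self-fluorescent; inactive = the rest.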 Not all compounds are listed; rates above refer to the full screens.
SMILES,VCAM-1 up imaging,VCAM-1 down imaging,FPR binder,FPRL1 binder,VCAM-1 inhibition
Cc1onc(-c2ccccc2)c1C(=O)Nc1nnc(N2CCCCCC2)s1,/,/,1,3,/
CCOC(=O)C1CCCN(C(=O)c2sc3nc(-c4ccc(F)cc4)cn3c2C)C1 (centres undefined),/,/,4,-1,/
CCOC(=O)C1=C(C)OC(N)=C(C#N)C1c1ccoc1 (centres undefined),i,i,3,0,i
CCOc1ccccc1C1CC(=O)Nc2cc(OC)c(OC)c(OC)c21 (centres undefined),/,/,0,-1,/
Cc1cc(-c2ccccc2)c2nncn2n1,i,i,-4,2,i
Cc1ccc(CNC(=O)C2CC(=O)N(C3CCCCCCC3)C2)cc1 (centres undefined),/,/,-1,-2,/
COc1cccc(CNC(=O)C2CCCN(c3nc4ccccc4o3)C2)c1 (centres undefined),/,/,0,4,/
COc1ccccc1N(CN1CCCC1=O)C(=O)c1c(F)cccc1F,/,/,0,2,/
CCn1cnc2sc(C(=O)N3CCN(c4ccc(OC)cc4)CC3)c(C)c2c1=O,/,/,7,-2,/
COc1ccc(OC)c(NC(=O)CCN2CCC(C)CC2)c1,i,i,-6,-2,i
CCOc1cc2[nH]c(=O)n(CC3CCC(C(=O)NC(C)CC)CC3)c(=O)c2cc1OCC (centres undefined),/,/,6,-7,/
CCOC(=O)N1CCC(NC(=O)C2CCCN2C(=O)OCc2ccccc2)CC1 (centres undefined),i,i,2,2,i
CCOC(=O)N1CCN(S(=O)(=O)c2c(C)[nH]c(=O)[nH]c2=O)CC1,/,/,-1,1,/
CCn1c(=O)cc(OCC(=O)Nc2ccccc2C#N)c2ccccc21,/,/,0,1,/
CCOC(=O)N1CCC(Nc2c(-c3ccc(C)cc3)c(=O)c2=O)CC1,i,i,-4,1,i
Cc1ccc(-c2ccc(/C=N/n3cnnc3)o2)cc1Cl,i,i,-2,-8,i
c1ccc2c(c1)Cc1cc(CN3CCOCC3)ccc1-2,i,i,1,3,i
CSCCC1C(C#N)=C(N)Oc2n[nH]c(-c3cccs3)c21 (centres undefined),/,/,30*,6,/
CC(=O)C(C(C)=O)C(NC(=O)c1cccnc1)(C(F)(F)F)C(F)(F)F,/,/,-9,-3,/
Cc1nn(C)c(C)c1S(=O)(=O)N(CC(=O)NCCN1CCOCC1)c1ccc(C(C)C)cc1,/,/,-2,9,/

# Some of these compounds in order of SMILES length, smallest number first.
SMILES,VCAM-1 up imaging,VCAM-1 down imaging,FPR binder,FPRL1 binder,VCAM-1 inhibition
CSCCC1C(C#N)=C(N)Oc2n[nH]c(-c3cccs3)c21 (centres undefined),/,/,30*,6,/
CCOc1ccccc1C1CC(=O)Nc2cc(OC)c(OC)c(OC)c21 (centres undefined),/,/,0,-1,/
COc1cccc(CNC(=O)C2CCCN(c3nc4ccccc4o3)C2)c1 (centres undefined),/,/,0,4,/
CCOC(=O)N1CCN(S(=O)(=O)c2c(C)[nH]c(=O)[nH]c2=O)CC1,/,/,-1,1,/

# Going on with the list:
SMILES,VCAM-1 up imaging,VCAM-1 down imaging,FPR binder,FPRL1 binder,VCAM-1 inhibition
O=C(CCCCn1c(=O)c2ccccc2n(CC(=O)Nc2ccc(F)cc2)c1=O)NCc1ccco1,/,/,-4,16,/
O=c1[nH]cnc2c1C1(CCCC1)Cc1ccccc1-2,i,i,0,-8,i
COC1(OC)N=C(N)C2(C#N)C(c3ccc(C)cc3)C12C#N (centres undefined),/,/,-4,-1,/
O=C(NCCCN1CCCCC1)c1ccc2c(c1)NC(=O)C(N1CCCCC1)S2 (centres undefined),/,/,-1,-17,/
CCc1ccc(NC(=O)CSc2nc3cc(C(=O)OC)ccc3c(=O)n2Cc2ccco2)cc1,/,/,-3,0,/
Cc1nc(CNS(=O)(=O)c2cc(F)ccc2F)cs1,/,/,2,1,/
O=C(CSc1nnc(CNC(=O)c2c(F)cccc2Cl)o1)NCc1ccc2c(c1)OCO2,/,/,-1,-3,/
O=C(CSCc1cnn(-c2ccccc2)c1-n1cccc1)NCC1CCCO1 (centres undefined),i,i,-2,-4,i
COc1ccccc1N1CCN(Cc2cc(Br)c(O)c3ncccc23)CC1,/,/,9,7,/
CN(C)C(=O)Cn1c(SCC(=O)NC2CCCCC2)nc2ccccc21,i,i,4,4,i
CCOC(=O)C1=C(C)NC(SC(C)=O)=NC1c1ccc(OC(C)=O)c(OC)c1 (centres undefined),i,i,-2,-2,i
CCn1cc(C(=O)NCc2ccc3c(c2)OCO3)c(=O)c2cc(S(=O)(=O)N3CCOCC3)ccc21,/,/,3,-2,/
CCOc1cc(C2NC(=O)N(C)C(C)=C2C(=O)OC)cc(Br)c1O (centres undefined),i,i,-6,-12,i
COc1ccc(-n2c(Cc3cccn3C)nnc2SCC(=O)Nc2nc(C)cs2)cc1,/,/,-5,-3,/
CCOC(=O)c1[nH]c(C)c(C(=O)Nc2cc(OC)ccc2OC)c1C,i,i,-2,-1,i
COc1ccc(CC(=O)N2CC(=O)N(CCc3ccccc3)C(=O)C2)cc1,/,/,2,5,/
COc1ccc(CC(=O)OCc2nnc(C3COc4ccccc4O3)o2)cc1OC (centres undefined),i,i,-1,-5,i
Nc1nc(CN2CCN(Cc3ccc4c(c3)OCO4)CC2)nc(Nc2ccccc2)n1,i,i,-4,1,i
CC(C)CNC(=O)c1cc(-c2ccco2)on1,/,/,-6,-3,/
Cc1cc(C)cc(NS(=O)(=O)c2ccc3[nH]c(=O)[nH]c3c2)c1,i,i,1,-2,i
COc1ccccc1NC(=O)C1=C(C)Nc2nc(CCCO)nn2C1c1cccnc1 (centres undefined),i,i,4,-1,i
CN=c1sc2ccccc2n1CC(O)COCc1ccco1 (centres undefined),i,i,-1,-4,i
O=S(=O)(Cc1ccccc1)/C1=C(\N2CCOCC2)CCCCCC1,/,/,0,8,/
Cc1cccc(C(=O)N2CCN(C(=O)c3cccc(C)c3)C(C)C2)c1 (centres undefined),i,i,-2,4,i
COc1ccc(S(=O)(=O)N2CCC(C(=O)Nc3c(F)cccc3F)CC2)cc1,i,i,-3,1,i
Cc1cc(=O)[nH]c(SCc2cc(=O)n3nc(C)sc3n2)n1,/,/,-3,1,/
COc1ccccc1N1C(N)=NC(N)=NC1(C)C,/,/,5,-7,/
OCCSc1nnc(Nc2ccccc2)s1,/,/,3,-2,/
CC(NC(=O)Cc1cccs1)c1ccc2c(c1)OCO2 (centres undefined),i,i,3,-1,i
O=C(CCN1C(=O)COc2ccccc21)NCCC1=CCCCC1,/,/,2,-2,/
Cc1nn(-c2ccc(F)cc2F)c2c1-c1nc(N3CCCC3)ncc1CC2,/,/,3,-3,/
COC(=O)c1ccsc1NC(=O)CN1C(=O)CCC1=O,i,i,-3,3,i
CCc1nc(N[C@@H](Cc2c[nH]c3ccccc23)C(=O)O)c2oc3ccccc3c2n1,i,i,2,8,i
CCn1c(C)nc2cc(C(=O)OCCC(F)(F)F)ccc21,i,i,0,-6,i
Cc1ccc(NC(=O)CSc2nc3ccccc3c(=O)n2CCCC(=O)N2CCCC2)cc1,/,/,7,1,/
C=CCN1C(=O)C2(c3ccccc31)C1CCCC=C1C(C#N)=C(N)C2(C#N)C#N (centres undefined),i,i,-2,-4,i
O=C(CSc1nc(-c2ccccc2)cs1)NCc1ccco1,i,i,-1,3,i
Cc1cc(NC(=O)NC(=O)c2ccc(F)cc2F)n[nH]1,/,/,2,6,/
COC(=O)c1ccc(-c2ccco2)n1Cc1nc(-c2ccc(OC)c(OC)c2)oc1C,i,i,11,-2,i
CC1(C)CC(=O)C(CC(=O)NC(=O)NCc2ccccc2)=C(O)C1,i,i,-3,5,i
NCCCC(=O)N1c2ccccc2Sc2ccccc21,/,/,4,4,/
CCN(CC)CCCN1C(=O)C(=O)/C(=C(/O)c2ccccc2)C1c1ccccn1 (centres undefined),i,i,-4,-1,i
CCOC(=O)N1CCN(C(=O)CCn2nc(-c3ccc(Cl)cc3)ccc2=O)CC1,/,/,-2,-3,/
Cc1ccc(Nc2cc(C)nc3nc(C)nn23)c(C)c1,/,/,0,1,/
Cc1[nH]c(-c2ccco2)nc1C(=O)O,/,/,13,8,/
COc1ccc(N(CC(=O)Nc2ccc3c(c2)OCCO3)S(=O)(=O)c2cccnc2)cc1,i,i,-2,5,i
O=C(CCC1CCCC1)c1c(O)c2ccccc2oc1=O,/,/,12,0,/
CC(=O)[C@@]1(O)CC[C@H]2[C@@H]3C[C@H](C)C4=CC(=O)C=C[C@]4(C)[C@@]3(F)[C@@H](O)C[C@@]21C,i,i,3,-5,i
COc1cc2[nH]c(=O)n(CCCCCC(=O)NCCCN3CCOCC3)c(=O)c2cc1OC,/,/,-1,-5,/
COc1ccc(CCNC(=O)C2CCN(C(=O)N(C)C)CC2)cc1OC,i,i,1,3,i
CCS(=O)(=O)Nc1ccc(C(=O)CC2(O)C(=O)Nc3ccccc32)cc1 (centres undefined),i,i,1,6,i
Cc1cccc(-n2c(C)nc3c(cnn3-c3ccc(F)cc3)c2=O)c1,/,/,4,-8,/
CN1C(=O)NC(c2cccc(O)c2)C(C(=O)c2cccs2)C1(O)C(F)(F)F (centres undefined),/,/,3,0,/
CC(C)Cn1c(CN(Cc2ccccc2)Cc2ccccc2)nc2c1c(=O)n(C)c(=O)n2C,i,i,12,8,i
FC(F)(F)c1nc2ncc(Cl)cc2[nH]1,/,/,3,-2,/
CC1N=C2c3ccccc3N=C(SCc3cc(=O)n4ccccc4n3)N2C1=O (centres undefined),/,/,1,-6,/
CCOC(=O)C1=C(N)OC2=C(C(=O)CC(C)(C)C2)C1c1ccoc1 (centres undefined),i,i,8,4,i
Cc1ccccc1CSCC(=O)c1c(N)n(C)c(=O)n(C)c1=O,i,i,-5,-2,i
CCOC(=O)c1ccc(N2CSC3=C(C#N)C(c4ccc(OC)cc4OC)CC(=O)N3C2)cc1 (centres undefined),/,/,-3,-8,/
COc1cccc(/C(O)=C2\C(=O)C(=O)N(c3ccccn3)C2c2ccccc2OC)c1 (centres undefined),/,/,-5,-2,/

# Next results.
SMILES,VCAM-1 up imaging,VCAM-1 down imaging,FPR binder,FPRL1 binder,VCAM-1 inhibition
CC(=O)N=c1sc2c3ccccc3ccc2n1C,/,/,-4,-5,/
CCOc1ccc2[nH]c(=O)c(CN(Cc3ccccc3)C(=O)N3CCCC3)cc2c1,i,i,4,-7,i
COc1ccccc1NC(=O)C1=C(C)Nc2ncnn2C1c1ccc(C)o1 (centres undefined),i,i,10,-2,i
CCOc1ccc(NC(=O)CCNc2c(N3CCCC3)c(=O)c2=O)cc1,/,/,0,-1,/
CCOC1(OCC)N=C(N)C2(C#N)C(c3cccc(OC)c3OC)C12C#N (centres undefined),/,/,3,-3,/
O=C(O)C1CC(=O)N(Cc2ccccc2)C1 (centres undefined),i,i,0,-1,i
CCc1cccc2c3c([nH]c12)C(CC)(CC(=O)O)OCC3 (centres undefined),i,i,2,-3,i
CCC(C)NC(=O)c1cnn2c(C)c3c(nc12)CCCC3 (centres undefined),/,/,8,3,/
CCOC(=O)c1cc2cc(-c3c(C(=O)OCC)oc4cc(O)cc(O)c4c3=O)ccc2o1,/,/,-2,1,/
COc1ccc(N2CCN(CCNC(=O)C3CCN(S(=O)(=O)c4cccs4)CC3)CC2)cc1,/,/,-2,7,/
COc1ccc(NC(=O)CSc2nc(C)cc(C(F)(F)F)n2)cc1,i,i,2,-6,i
O=c1c2cc(N3CCOCC3)ccc2[nH]c(=S)n1CC1CCCO1 (centres undefined),/,/,-1,0,/
CC(=O)O[C@H]1CSC[C@H]1NC(=O)c1ccccc1,i,i,4,1,i
CC1Cc2cc(/C(O)=C3/C(=O)C(=O)N(Cc4ccco4)C3c3cccs3)ccc2O1 (centres undefined),/,/,8,0,/
O=C(OCC(=O)N1CCC(Cc2ccccc2)CC1)c1ccc[nH]c1=O,i,i,2,9,i
Cc1csc(NC(=O)C2CCCN(S(=O)(=O)c3cccnc3)C2)n1 (centres undefined),/,/,-5,-2,/

# Among those listed so far, seven contain a thiophene ring, fused or not.
SMILES,VCAM-1 up imaging,VCAM-1 down imaging,FPR binder,FPRL1 binder,VCAM-1 inhibition
CCn1cnc2sc(C(=O)N3CCN(c4ccc(OC)cc4)CC3)c(C)c2c1=O,/,/,7,-2,/
CSCCC1C(C#N)=C(N)Oc2n[nH]c(-c3cccs3)c21 (centres undefined),/,/,30*,6,/
CC(NC(=O)Cc1cccs1)c1ccc2c(c1)OCO2 (centres undefined),i,i,3,-1,i
COC(=O)c1ccsc1NC(=O)CN1C(=O)CCC1=O,i,i,-3,3,i
CN1C(=O)NC(c2cccc(O)c2)C(C(=O)c2cccs2)C1(O)C(F)(F)F (centres undefined),/,/,3,0,/
COc1ccc(N2CCN(CCNC(=O)C3CCN(S(=O)(=O)c4cccs4)CC3)CC2)cc1,/,/,-2,7,/
CC1Cc2cc(/C(O)=C3/C(=O)C(=O)N(Cc4ccco4)C3c3cccs3)ccc2O1 (centres undefined),/,/,8,0,/
